Screens: PubChem, several laboratories
Cdc25B inh – inhibitors of Cdc25B phosphatase catalytic domain, primary screen, biochemical, OMFP fluorescence. M-phase inducer phosphatase 2 (Homo sapiens), P30305. recombinant Cdc25B, OMFP fluorescence Ex485/Em525. inhibition, %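 (compounds tested at 10 µM final in the well)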. 65,000 tested, 0.1% active; in the data active = inhibition above about 50%
Target sequence (P30305 whole entry, looked up, the tested form may be a part): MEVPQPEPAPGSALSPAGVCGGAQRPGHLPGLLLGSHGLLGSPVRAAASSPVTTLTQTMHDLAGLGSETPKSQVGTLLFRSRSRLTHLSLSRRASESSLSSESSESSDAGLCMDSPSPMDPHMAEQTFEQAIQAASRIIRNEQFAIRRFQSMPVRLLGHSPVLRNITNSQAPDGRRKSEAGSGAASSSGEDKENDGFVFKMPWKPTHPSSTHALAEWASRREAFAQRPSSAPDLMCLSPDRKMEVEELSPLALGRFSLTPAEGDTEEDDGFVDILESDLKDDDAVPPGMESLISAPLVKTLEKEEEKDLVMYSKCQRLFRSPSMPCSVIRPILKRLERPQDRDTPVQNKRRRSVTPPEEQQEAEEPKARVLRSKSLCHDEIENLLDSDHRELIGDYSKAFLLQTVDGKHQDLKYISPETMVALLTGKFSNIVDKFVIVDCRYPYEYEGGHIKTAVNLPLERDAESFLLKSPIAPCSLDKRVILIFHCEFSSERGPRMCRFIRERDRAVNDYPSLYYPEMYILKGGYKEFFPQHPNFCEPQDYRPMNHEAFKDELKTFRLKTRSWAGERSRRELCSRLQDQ
A340 absorber – compound light absorbance at 340 nm, profiling panel, artefact control, biochemical, MLSMR library, data from PS, PMK, MK assays; compound absorbance at 340 nm, fold over control; fold change at 10 µM; 65,000 tested, under 10 active;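 active = at 10 µM dose, initial 340 nm absorbance at least 2 fold that of control wells; inactive = change under 2 fold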;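 note: initial absorbance extrapolated from kinetic A340 decline of NADH oxidation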
Hsp90 inh – tumor Hsp90 inhibitors, primary screen, cell lysate, fluorescence polarization, NCI-N417 lysate | Heat shock protein HSP 90-alpha (Homo sapiens), P07900 | Cy3B-geldanamycin FP displacement | inhibition, % at 30 µM | 64,000 tested, 0.35% active | AID 429, 2006;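 active = inhibition above 50%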;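 note: 0% = tracer plus lysate wells and 100% = tracer alone without lysate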
JNK3 blocker – JNK3 kinase activity inhibitors, primary screen, biochemical, human, purified enzyme; Mitogen-activated protein kinase 10 (Homo sapiens), P53779; 60,000 tested, 0.61% active; inhibition, % at 8 µM; HTS; in the data active = inhibition above about 17%;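 note: 0% = DMSO and 100% = reference inhibitor; many of its hits are not listed in these tables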
Autofluor 339 – intrinsic fluorescence of library compounds, ex339/em460 – biochemical, MLSMR library, data from DPM-DC assay, artefact control, profiling panel. fluorescence fold increase at 10 µM. 65,000 tested, 5.5% active. AID 709, 2007. compound autofluorescence, ex339/em460 nm, NADH buffer; hits give high values; 1 = no-compound wells, NADH background;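 active = at 10 µM, mean starting fluorescence two-fold or more over control wells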;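 note: signal is the first read of a kinetic run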
Her2 expr inh – inhibitors of Her2 protein expression, primary screen, SKBR-3 cells, AlphaScreen, 66K library; Receptor tyrosine-protein kinase erbB-2 (Homo sapiens), P04626; SKBR-3 HER2 protein level, 18-24 h; hits give low values; HER2 level % of control, % at 10 µM; 65,000 tested, 0.69% active;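 active = HER2 level under 5% of the carrier-only control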;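 note: 100% = DMSO carrier and 0% = 500 nM PU-H71 HSP90 inhibitor; lower value means stronger loss of Her2 protein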
DUSP1 inh – MKP-1 phosphatase inhibitors, primary screen, biochemical, in vitro. 65,000 tested, 0.15% active. recombinant MKP-1, OMFP hydrolysis fluorescence. Dual specificity protein phosphatase 1 (Homo sapiens), P28562. inhibition, %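 (compounds tested at a single concentration somewhere between 10 and 100 µM)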;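 active = inhibition above about 50%, limit read from the data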;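 note: 0% = DMSO max control wells and 100% = wells with enzyme stopped by NaOH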
Target sequence (P28562 whole entry, looked up): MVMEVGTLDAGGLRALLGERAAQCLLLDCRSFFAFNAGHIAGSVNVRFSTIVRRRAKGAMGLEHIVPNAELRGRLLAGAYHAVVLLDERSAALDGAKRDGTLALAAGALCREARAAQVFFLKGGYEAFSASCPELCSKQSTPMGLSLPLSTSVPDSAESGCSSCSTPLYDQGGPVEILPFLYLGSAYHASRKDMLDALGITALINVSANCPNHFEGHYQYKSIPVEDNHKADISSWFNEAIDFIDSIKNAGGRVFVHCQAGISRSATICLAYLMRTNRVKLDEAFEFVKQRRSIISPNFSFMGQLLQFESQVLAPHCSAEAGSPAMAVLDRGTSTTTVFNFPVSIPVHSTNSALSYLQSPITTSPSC
Starred values were filed as active, the others as inactive. Only part of the results is shown. The share of hits here may be higher or lower than overall.

SMILES	Cdc25B inh	A340 absorber	Hsp90 inh	JNK3 blocker	Autofluor 339	Her2 expr inh	DUSP1 inh
Cc1ccc(-c2noc(CCC(=O)NC3CCN(Cc4ccccc4)CC3)n2)cc1	-32.4	0.98	1.0	-0.2	1.08	103.0	4.0
c1ccc2c(c1)nc(N1CCN(C3CCCCC3)CC1)c1nnnn12	-17.6	1.02	0.3	3.2	1.45	72.8	-16.5
COc1cccc(=O)c2c(C)oc(C)c12	-6.5	1.04	-2.5	-1.3	1.18	91.9	26.9
CCC(C)Nc1nc2c(c(=O)n(C)c(=O)n2C)n1Cc1ccc(F)cc1 (stereo not given)	2.7	1	2.0	-0.8	1.04	93.2	-2.1
CCCCN(CC)CCNC(=O)c1cc2c(C)nc3ccccc3c2o1	-8.9	0.99	1.4	1.2	1.09	111.9	-5.5
CC(C)n1c(C(=O)OCC(=O)NCc2ccc3c(c2)OCO3)cc2occc21	-7.0	0.98	3.6	-5.9	1.14	91.9	3.2
O=C(COC(=O)CCC(=O)c1ccc(Cl)cc1)NCC1CCCO1 (stereo not given)	1.0	1	-4.9	0.1	1.05	129.4	16.3
Cc1c(C(=O)N2CCCc3ccccc32)oc2ccc(S(=O)(=O)N3CCOCC3)cc12	-7.8	0.98	-7.6	-3.3	1.06	91.7	20.3
O=C(COc1ccc(-c2nnco2)cc1)NC1CCCc2ccccc21 (stereo not given)	-8.8	1.02	-1.6	-1.6	0.98	78.6	21.8
O=C(OCn1nnc2ccccc2c1=O)c1cc2ccccc2o1	-7.5	0.98	-2.2	-4.3	1.05	112.2	6.5
O=C(CCn1cnc2ccccc2c1=O)Nc1nc2c(s1)CCCC2	-8.0	1.04	-0.6	-1.0	1.11	110.1	-2.8
COC(=O)Cc1c(C)nc2nc(-c3ccc(OC)cc3)[nH]n2c1=O	-1.5	1.01	0.2	-3.1	1.1	56.7	-9.9
Nc1nonc1-c1nc2ccccc2n1Cc1ccc(F)cc1Cl	-13.9	1.01	-2.0	-5.2	1.14	68.0	4.2
CCC(=O)c1cc2c(cc1NC(=O)c1ccc(C)cc1)OCCO2	-14.5	1.11	-2.1	-2.0	3.14*	80.8	8.3
O=C(Nc1cccc(Cl)c1)c1ccncc1	-5.2	1.08	5.0	-2.1	1.13	95.3	-5.0
COC(=O)c1cccc(NC(=O)CN2CCN(Cc3ccccc3)CC2)c1	-11.5	1	-2.9	-3.5	1	115.9	-1.9
CCn1c(SCC(=O)OC2CCCCC2)nnc1-c1ccncc1	-0.7	1	-1.2	1.0	1.19	115.8	-2.6
Cc1[nH]n2c(=O)c(C#N)c(-c3ccccc3)nc2c1-c1ccccc1	-0.9	1.05	-1.8	-4.6	1.11	112.6	-10.8
CCOC(=O)C1CCN(C(=O)COc2ccc(S(=O)(=O)NC(C)C)cc2Cl)CC1	-8.4	1.02	-3.5	-1.6	1.1	106.8	-1.9
Cc1ccc(-n2ncc3c(=O)n(-c4ccc(C)c(C)c4)c(C)nc32)cc1	14.2	1	-1.4	0.3	1.13	79.4	12.4
CC1(C)CC(=O)C(C=Nc2ccc3[nH]ncc3c2)=C(O)C1	-18.6	1.16	10.1	1.0	1.34	101.5	-1.0
O=C(Nc1ccc2oc(-c3ccncc3)nc2c1)c1ccccc1F	4.9	1.05	3.8	-0.9	3.71*	76.0	-18.0
O=C(Nc1ccncc1)c1ccc2c(c1)OCCO2	-6.0	1.02	0.7	-1.6	1.06	83.6	9.9
Cc1ccc(NC(=O)C(C)Sc2nnc(-c3cccnc3)o2)cc1 (stereo not given)	-8.4	1.01	1.4	-6.9	1.08	75.8	-5.5
COc1ccc(OC)c(C2=Nn3c(nnc3-c3cccc(OC(C)C)c3)SC2)c1	-8.9	1.04	-0.6	6.6	1.16	98.5	-4.4
Cc1ccc(C)c(CSc2nnc(-c3cccnc3)o2)c1	-19.8	1	0.4	0.6	1.15	94.7	11.6
COc1ccc2[nH]c3c(N4CCN(Cc5ccc6c(c5)OCO6)CC4)ncnc3c2c1	23.0	1.08	1.7	-5.7	2.33*	96.9	-8.7
c1nc(N2CCC3(CC2)OCCO3)c2[nH]cnc2n1	7.6	1.02	11.0	2.6	1.13	87.1	-3.3
COc1cc2c(C(=O)NCc3ccc4c(c3)OCO4)cn(C)c(=O)c2cc1OC	0.9	1.01	-1.2	2.5	1.11	92.6	39.3
CCOC(=O)c1c(NC(=O)CSc2nnnn2-c2ccc3c(c2)OCCO3)sc(C)c1C	-4.5	1.03	-2.2	0.6	1.11	147.9	12.8
O=C(Nc1ccncc1)c1cccc(F)c1	6.5	1.04	0.9	2.9	1.01	81.4	-5.8
COc1ccc(OC)c(NC(=O)CCN2CCN(c3ccccc3)CC2)c1	2.4	1.01	-3.9	5.7	1.13	97.7	2.3
Cc1ccc2cc3cc(C(=O)NCc4ccco4)oc3nc2c1	4.9	1.17	0.2	-2.2	4.58*	83.6	32.2
Cc1cc(NS(=O)(=O)c2ccc(NC(=O)C(C)Oc3ccc4c(C)cc(=O)oc4c3)cc2)no1 (stereo not given)	-5.9	1.12	-6.1	4.8	2.05*	88.5	16.4
COc1ccc2[nH]c3c(=O)n(CCCCC(=O)N4CCCC4)c(=S)[nH]c3c2c1	-4.7	1.05	-3.6	1.1	1.47	100.3	38.5
COc1ccc(-c2nc(C(N)=O)c3[nH]c(=O)n(-c4cccc(Cl)c4)c3n2)cc1OC	-6.9	1.01	-1.2	-3.0	1.08	-11.8*	32.6
CCc1ccc(NC(=O)N(C2CCC(C)CC2)C2CCN(C(C)=O)CC2)cc1 (stereo not given)	1.4	1	1.3	4.0	0.91	126.9	32.7
C=CCn1c(SCC(=O)Nc2cccc(C(=O)OC)c2)nnc1C(C)NC(=O)c1cccs1 (stereo not given)	-6.9	1.02	-7.1	-1.8	1.1	99.0	1.9
CCOc1ccc(Cn2nnc(C(=O)NCCc3ccccc3)c2N)cc1	-9.1	1.01	-3.9	-1.8	1.08	96.1	6.8
COc1nc(OC)nc(N2CCC(C(=O)Nc3cccc4c3CCCC4)CC2)n1	3.3	1.02	-1.4	-6.1	1.13	62.5	21.3
CCOC(=O)N1CCC(NC(=O)CCc2nc(-c3ccccc3F)no2)CC1	-6.9	0.96	-5.1	-1.5	1.1	96.5	10.3
COc1ccccc1CC(=O)NCc1ccc2c(c1)OCO2	-15.0	0.98	-3.4	1.7	1.02	160.2	-3.8
O=C(Nc1ccc2oc(-c3ccc(F)cc3)nc2c1)c1ccccc1F	11.6	1.09	-0.2	-4.4	2.98*	128.7	22.7
O=C(CSc1nnc(-c2ccccc2)o1)Nc1ccccc1F	-17.8	1.04	0.5	6.3	1.05	91.3	-1.5
COc1cc(SC)ccc1C(=O)Nc1ccccc1C#N	6.4	1.01	-0.8	-8.8	1.09	75.0	0.9
Cc1cc(NC(=O)c2cccc(N3C(=O)CCC3=O)c2)no1	-5.3	0.99	-0.8	-4.2	1.09	77.9	5.6
CCOC(=O)CSc1nnc(-c2cccc(Cl)c2)n1CC	-10.8	1	2.0	-1.4	1.03	102.3	26.5
Cc1cc(NC(=O)c2cccc(C(=O)Nc3cc(C)on3)n2)no1	-3.9	1	-3.4	8.9	1.07	73.5	-2.3
COc1ccc(OCCSc2ncnc3nc[nH]c23)cc1	-8.5	1.05	1.2	12.8	1.08	85.0	-3.2
COc1ccc(-c2cc(OC)c3c(C)oc(C)c3c(=O)c2)cc1OC	6.8	1.05	-12.3	-11.1	1.03	66.8	43.9

Structures listed above that bear a hit mark in Her2 expr inh:
smiles	Cdc25B inh	A340 absorber	JNK3 blocker	Autofluor 339	Her2 expr inh	DUSP1 inh
COc1ccc(-c2nc(C(N)=O)c3[nH]c(=O)n(-c4cccc(Cl)c4)c3n2)cc1OC	-6.9	1.01	-3.0	1.08	-11.8*	32.6

The results go on:
SMILES	Cdc25B inh	A340 absorber	Hsp90 inh	JNK3 blocker	Autofluor 339	Her2 expr inh	DUSP1 inh
O=C(CC(=O)Nc1ccccn1)Nc1ccccn1	-4.7	1	0.9	8.5	1.08	77.9	-0.9
O=C(CCc1nc(-c2ccccc2F)no1)NC1CCCCCC1	-13.5	0.98	-0.2	6.9	1.09	90.0	7.3
COc1ccc(-c2nnc(-c3ccc(N)cc3)o2)cc1	-12.9	1.06	2.8	-0.3	2.92*	94.3	-4.0
CC(C)C(=O)Nc1cc2c(cc1C(=O)c1ccccc1)OCCO2	2.9	0.99	0.1	-6.0	1.14	90.1	1.8
COc1ccc2c(c1)c1ncn(CCN3CCCC3)c(=O)c1n2C	6.7	1.05	-2.4	-7.7	3.69*	151.6	-13.6
CCn1cc(C(=O)N2CCc3ccccc32)c(=O)c2cc(S(=O)(=O)N3CCOCC3)ccc21	-26.9	1.03	-5.3	4.6	1.05	102.6	23.0
Fc1ccc(-c2cc3nc4c(c(N5CCOCC5)n3n2)CCCC4)cc1	0.0	1.04	-0.1	1.6	1.52	92.3	11.1
CCOc1ccc(C(=O)Nc2cc(C)on2)cc1OCC	0.9	1	1.5	3.7	1.05	103.0	-4.3
CCOc1ccc(C(=O)Nc2ccncc2)cc1	6.3	1.03	4.7	0.1	1.12	138.0	-5.7
COC(=O)c1sc(S(=O)(=O)Nc2ccc3cn[nH]c3c2)c(C(=O)OC)c1C	-2.9	1	-0.8	-2.4	1.01	102.1	19.7
CCCCC(=O)Nc1ccc2oc(-c3ccncc3)nc2c1	1.0	1.05	-6.1	2.7	3.7*	111.2	0.8
CCc1nnc(NC(=O)c2ccc(S(=O)(=O)N3CCOCC3)cc2)s1	-6.2	1.09	-2.8	7.6	1.04	94.5	-1.3
O=C1CS/C(=C/C(=O)c2ccccc2)N1	-2.5	1.18	-0.9	-1.8	1.02	109.8	4.9
O=C(Nc1ccc(Cl)cn1)c1cccc(F)c1	-15.6	1.03	-1.9	8.4	1.04	73.6	5.2
CC(C)(C)NC(=O)CSc1nnc(-c2ccncc2)n1Cc1ccccc1	21.6	0.99	-3.9	-1.7	1.03	88.2	32.7
O=C(Nc1nnc(-c2ccc3c(c2)CCCC3)o1)C1COc2ccccc2O1 (stereo not given)	2.6	1.03	-3.2	-0.4	1.1	67.0	37.2
CCCC(=O)Nc1ccc(-c2nc3cc(C)c(C)cc3o2)cc1	-7.4	1.03	-4.5	4.3	3.79*	108.2	29.8
COc1ccc(OCC(=O)Nc2ncc3c(n2)CC(C)(C)CC3=O)cc1	-4.1	0.99	2.5	-3.0	1.07	94.7	3.3

Among those listed so far, these contain fluorine.
SMILES	Cdc25B inh	A340 absorber	Hsp90 inh	JNK3 blocker	Autofluor 339	Her2 expr inh	DUSP1 inh
CCC(C)Nc1nc2c(c(=O)n(C)c(=O)n2C)n1Cc1ccc(F)cc1 (stereo not given)	2.7	1	2.0	-0.8	1.04	93.2	-2.1
Nc1nonc1-c1nc2ccccc2n1Cc1ccc(F)cc1Cl	-13.9	1.01	-2.0	-5.2	1.14	68.0	4.2
O=C(Nc1ccc2oc(-c3ccncc3)nc2c1)c1ccccc1F	4.9	1.05	3.8	-0.9	3.71*	76.0	-18.0
O=C(Nc1ccncc1)c1cccc(F)c1	6.5	1.04	0.9	2.9	1.01	81.4	-5.8
CCOC(=O)N1CCC(NC(=O)CCc2nc(-c3ccccc3F)no2)CC1	-6.9	0.96	-5.1	-1.5	1.1	96.5	10.3
O=C(Nc1ccc2oc(-c3ccc(F)cc3)nc2c1)c1ccccc1F	11.6	1.09	-0.2	-4.4	2.98*	128.7	22.7
O=C(CSc1nnc(-c2ccccc2)o1)Nc1ccccc1F	-17.8	1.04	0.5	6.3	1.05	91.3	-1.5
O=C(CCc1nc(-c2ccccc2F)no1)NC1CCCCCC1	-13.5	0.98	-0.2	6.9	1.09	90.0	7.3
Fc1ccc(-c2cc3nc4c(c(N5CCOCC5)n3n2)CCCC4)cc1	0.0	1.04	-0.1	1.6	1.52	92.3	11.1
O=C(Nc1ccc(Cl)cn1)c1cccc(F)c1	-15.6	1.03	-1.9	8.4	1.04	73.6	5.2
